Screening results as filed in PubChem BioAssay.
MgrA-DNA mod – modulators of Staphylococcus aureus MgrA DNA binding; AID 602314; fluorescence polarization; 84,000 tested, 0.13% active; inhibition, %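 (about 10 µg/mL by stock and volumes)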;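 active = above 50% in either of two replicates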;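 note: 0% = protein plus DNA without compound and 100% = DNA alone without protein; higher means less MgrA bound to DNA so lower polarization; one replicate is shown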
Sa helicase inh – blocks Staphylococcus aureus DNA helicase; purified S. aureus helicase, fluorescence unwinding assay; about half of the hits fall short of the stated cut; inhibition, %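 (tested at about 80 µM)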; AID 485395; 120,000 tested, 0.05% active;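 active = both duplicates at 50% or more, or one of them with a favoured structure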;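 note: 0% = mean of negative control wells and 100% = mean of positive control wells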
* marks the source's active call; other numbers are inactive results; x = not tested or not shown.

MgrA-DNA mod	Sa helicase inh	compound
0.1	2.0	CC(NC(=O)c1ccncc1)c1ccccc1 (stereo unspecified)
x	3.0	Cc1c(Cl)cccc1NC(=O)CSc1nc(=O)n(CCN2CCOCC2)c2c1CCCC2
x	-10.0	Cc1nc2sc(C(=O)N(Cc3ccco3)Cc3cccs3)c(C)c2c(=O)[nH]1
x	3.0	CCc1ccc(NC(=O)CCCn2c(=O)c3cccn3c3cccnc32)cc1
5.0	11.0	CCOC(=O)C1CCN(C(=O)c2ccccc2NC(=O)c2cccc(F)c2)CC1
-1.6	3.0	Cc1ccc(CSCC2COC(c3cccs3)=N2)cc1 (stereo unspecified)
x	-9.0	CCOC(=O)c1csc(NC(C)=O)n1
x	11.0	COc1ccc(NC(=O)CC(c2ccco2)c2ccccc2OC)cc1 (stereo unspecified)
-1.8	x	FC(F)(F)c1cccc(NC(=S)Nc2cc(-c3cccs3)[nH]n2)c1
-3.0	x	O=C1CC(c2ccccc2)CC(O)=C1C=Nc1ccc(Cl)cc1 (stereo unspecified)
x	-14.0	N#Cc1ccccc1S(=O)(=O)N1CCN(Cc2c(O)ccc3ccccc23)CC1
x	-18.0	Cc1cccc(C)c1NC(=O)Cn1c(=O)n(CCCC(=O)NCc2ccco2)c(=O)c2sccc21
x	-4.0	CCOc1ncccc1C(=O)NCc1ccc(F)cc1
6.0	10.0	CC(Oc1ccc(Br)cc1)C(N)=O (stereo unspecified)
x	8.0	CC1CCN(Cn2cnc3ccccc3c2=O)CC1
-3.6	11.0	COC(=O)CNc1nc(Cl)nc(N2CCC(C)CC2)n1
-1.8	-4.0	Fc1ccc(NC(=S)NCCCN2CCCCCC2)cc1Cl
x	0.0	c1cnc(Sc2ccc3ccccc3c2)nc1
x	-6.0	COc1ccc2oc(C(=O)OC(C)C(=O)N3C(C)CCCC3C)c(C)c2c1 (stereo unspecified)
3.3	-7.0	CCCOC(=O)c1ccc(NC=O)cc1
x	-13.0	COc1ccc2[nH]cc(CCNC(=O)Cn3cnc4ccccc4c3=O)c2c1
-1.2	x	CCOC(=O)C1=C(N)OC2=C(C(=O)CCC2)C1c1ccccc1F (stereo unspecified)
-1.5	-1.0	CCn1cc(CN(Cc2ccccc2)C(=S)Nc2ccc(Cl)cc2OC)c2ccccc21
-4.0	8.0	O=C(O)C1CNC(c2ccccc2)S1 (stereo unspecified)
x	20.0	CCOc1ccc(S(=O)(=O)NCCO)cc1
x	8.0	Cc1ccc(CNC(=O)C2CC3CCCN3C23C(=O)N(C)c2ccccc23)cc1 (stereo unspecified)
0.3	-2.0	O=C(COC(=O)c1ccc(Br)o1)Nc1cc(C(F)(F)F)ccc1Cl
x	9.0	COc1ccc(-c2nc(SCC(=O)N3CCCc4ccccc43)[nH]c(=O)c2C#N)cc1
0.1	0.0	O=C1NC(c2ccc(Br)cc2)Oc2ccccc21 (stereo unspecified)
x	21.0	O=C(CCCc1nnc2n3nc(-c4ccccc4)nc3c3ccccc3n12)NCc1ccco1
-1.5	16.0	Cc1nc2ccc(NC(=O)NCCCO)cc2s1
-2.0	x	COC(=O)c1cc([N+](=O)[O-])ccc1N1CCCC1
1.0	-9.0	CCCN(CCC)S(=O)(=O)c1ccc(C)cc1
x	15.0	O=c1cnc(Nc2ccccc2Cl)c2ccccc2n1
x	-37.0	COc1ccccc1NC(=O)C1C2C=CC3(CN(Cc4cccnc4)C(=O)C13)O2 (stereo unspecified)
x	9.0	CCc1nnc2c(N(C)c3cccc(C)c3)nc3ccccc3n12
x	6.0	CN(CC(=O)NC(c1ccccc1)c1ccccc1)S(=O)(=O)c1ccc2c(c1)CCC(=O)N2
0.7	1.0	COc1ccc(I)c(OC)c1
x	-9.0	CC1=C/C(=N\NS(=O)(=O)c2ccc(C)cc2)CC1
x	-25.0	CC1=NN(C(=O)c2cccs2)C(O)(C(F)(F)F)C1 (stereo unspecified)
-1.0	-6.0	COc1ccc2c(c1OC)C(=O)NC(C)=C(C(=O)OC(C)(C)C)C2O (stereo unspecified)
1.1	x	O=C1Nc2ccc(Cl)cc2S/C1=C/Nc1ccccc1
0.3	3.0	CC1CCN(C(=O)Cn2cc(SCC(=O)N3CCc4ccccc43)c3ccccc32)CC1
x	3.0	Cc1nc2ccn(Cc3cccnc3)c(=O)c2cc1C(=O)NCCC(C)C
x	2.0	CCCOc1ccc(C2c3c(oc4ccc(Cl)cc4c3=O)C(=O)N2CCN(CC)CC)cc1OC (stereo unspecified)
x	-30.0	O=C1C2C3C=CC(C3)C2C(=O)N1c1nc2ccccc2s1 (stereo unspecified)
x	-11.0	CC(C)N(C(=O)CSc1nc2ccc(Cl)cc2[nH]1)C(C)C
-10.3	-17.0	CCOc1ccc(C(C)(C)C(=O)NN2C(=O)/C(=C/c3ccccn3)N=C2c2ccccc2)cc1
2.4	9.0	CCN1C(=O)c2c(C)nc3ccccc3c2C1=O
0.0	-15.0	C(=Nc1ccc(-c2nnc3n2CCCCC3)cc1)c1ccsc1

Remaining list, next part.
MgrA-DNA mod	Sa helicase inh	compound
x	10.0	CC1CCc2sc(C(=O)NCCCn3ccnc3)cc2C1 (stereo unspecified)
x	1.0	O=C(Nc1nc(-c2cccnc2)cs1)C1CCCC1
x	-33.0	O=C1c2ccccc2S(=O)(=O)N1CC(O)Cn1ccc2ccccc21 (stereo unspecified)
x	-14.0	O=C(CSC1=NS(=O)(=O)c2ccccc2N1)c1ccccc1
-3.0	5.0	COc1ccc2c(C)nc(/N=C(\N)NC(C)=O)nc2c1
1.4	1.0	COC(=O)C(C)n1cnc2sc3c(c2c1=O)CCCC3 (stereo unspecified)
0.9	x	Cc1cc(C)c(C#N)c(N2CCN(c3ccccc3)CC2)n1
x	25.0	CC(C)=NNc1c(Cl)cc(Cl)cc1Cl
-1.2	x	COc1ccc(OC)c(C2NC(=O)NC(C)=C2C(=O)OCc2ccc3c(c2)OCO3)c1 (stereo unspecified)
-2.5	x	Cc1ccc(S(=O)(=O)NC(=O)Nc2scc(C)c2C(=O)c2ccccc2)cc1
x	-14.0	Cc1ccc(NC(=O)c2cc3c(=O)n(Cc4ccco4)ccc3nc2C)cc1
x	-6.0	O=C(OC1CCOC1=O)c1ccc(S(=O)(=O)N2CCCc3ccccc32)cc1 (stereo unspecified)
3.1	x	O=C1NC(=S)N/C1=C\c1cc(Br)c(O)c(Br)c1
1.8	10.0	COc1ccc(OC)c(NC(=O)c2oc3c(c2C)C(O)CC(C)(C)C3)c1 (stereo unspecified)
x	7.0	O=C(CSCC(=O)N1CCCC1)Nc1nc(-c2cccs2)cs1
x	6.0	CCc1nnc(NC(=O)c2sc3nc4c(cc3c2N)CCCCCC4)s1
x	-2.0	N#Cc1ccc(NC(=S)NC(=O)C2CC2)cc1
0.6	5.0	CCC(C)NC(=O)CSc1c2c(nc3ccccc13)CCCC2 (stereo unspecified)
x	-6.0	Cc1ccc(C2C3=C(CCCC3=O)Nc3c2c(=O)n(C)c(=O)n3C)cc1 (stereo unspecified)
x	2.0	CCN(CC)CCSc1nnnn1-c1ccccc1
2.4	-4.0	CC(=O)Nc1ccc(S(=O)(=O)N2C(=O)c3cccc4cccc2c34)cc1
0.5	-1.0	C=CCC1Cc2ccccc2C(CC=C)N1 (stereo unspecified)
8.1	4.0	ON=C1c2ccccc2-c2ccccc21
x	20.0	Cc1nnsc1C(=O)N/N=C/c1ccncc1
x	-6.0	O=C1CSC(N2CCOCC2)=N1
x	11.0	O=c1[nH]c2ccccc2nc1N1CCOCC1
0.7	20.0	COc1cccc2c(=O)c3c(cnn3C)n(C)c12
2.5	5.0	O=C(Nc1ccc(-c2noc(COc3ccc(Br)cc3)n2)cc1)c1cccnc1
-1.4	x	CC(=O)Nc1ccc(Br)cc1
x	-5.0	Cc1cc(C)n2nc(SCC(=O)N(C)Cc3ccccc3)nc2n1
-3.4	2.0	Cc1cc(S(=O)(=O)N2CCOCC2)ccc1OCC(=O)O
-1.9	8.0	C=CCOC(=O)C1C(c2ccccc2)c2c([nH][nH]c2=O)CC1(C)O (stereo unspecified)
0.6	-2.0	Cc1ccc(-c2nc3ncccc3o2)cc1NC(=O)/C=C/c1ccc(Cl)cc1
-1.1	x	CCOc1cc(C2C3=C(CC(C)(C)CC3=O)OC3=C2C(=O)CC(C)(C)C3)cc(Br)c1OC
1.1	-12.0	CC1Cc2ccccc2N1C(=O)C1(S(=O)(=O)c2ccccc2)CCCC1 (stereo unspecified)
-1.7	-2.0	Nc1nc2ccccc2n1C(=O)c1ccccc1
5.0	20.0	NNc1ccc2[nH]c(=O)[nH]c2c1
20.4	-97.0	COc1ccc(N=Cc2sc3ccccc3c2O)cc1
x	-36.0	COc1c(C(=O)O/N=C(\N)c2cccs2)csc1Cl
-2.0	x	Cc1cc(C)c2c(n1)sc1c(Sc3nccn3C)ncnc12
x	15.0	Cc1ccc(N(C)C(=O)n2nc(C)cc2C)cc1
x	3.0	COC(=O)c1ccc2c(=O)n3nc(NCC4CCCO4)sc3nc2c1 (stereo unspecified)
-4.3	-3.0	N=C(SC1CC(=O)N(c2ccc(C(=O)O)cc2)C1=O)N1N=C(c2ccccc2)CC1c1ccccc1 (stereo unspecified)
2.0	-8.0	NC(=O)C1CCN(c2nc(C3CC3)nc3c2nnn3Cc2ccccc2Cl)CC1
4.2	x	COc1ccc(-c2c(C#N)c(N)nc3sc(C(=O)c4ccc(Cl)cc4)c(N)c23)cc1
-1.6	-8.0	CC1CN(C(=O)c2scc3c2OCCO3)CC(C)O1 (stereo unspecified)
-1.2	11.0	Cc1c(C(=O)NCc2ccccc2)oc2ccc(S(=O)(=O)N(C)C3CCCCC3)cc12
x	12.0	O=C(Nc1nccs1)c1ccc(-c2nc3ccccc3s2)s1
x	2.0	CCCSc1nc2c(c(=O)n1-c1ccc(F)cc1)SCC2
-1.7	8.0	COc1ccc2c(c1)CCc1sc(NC(=O)c3cc(OC)c(OC)c(OC)c3)nc1-2

Remaining list, next part:
MgrA-DNA mod	Sa helicase inh	compound
-0.2	6.0	COc1cccc(-n2cc(C(=O)N(CC(C)C)CC(C)C)c3ccccc3c2=O)c1
-1.3	-10.0	O=C1/C(=C/N2CCCCC2)SC(=S)N1c1ccc(F)cc1
1.2	11.0	c1nc2ccc(Cc3ccc4nc[nH]c4c3)cc2[nH]1
1.7	8.0	COc1ccc2[nH]c3c(=O)n(Cc4ccc(C(=O)NC5CC5)cc4)c(=S)[nH]c3c2c1
-0.6	9.0	O=C1/C(=C\c2ccco2)SC(=S)N1Cc1ccccc1
-0.9	4.0	CSc1nnc(C2CCCN2C(=O)N(c2ccccc2)c2ccccc2)n1C (stereo unspecified)
2.7	x	CC1(C)CC(=O)C2=C(C1)NC1=C(C(=O)CC(C)(C)C1)C2c1cccs1
-0.6	-8.0	O=C(COC(=O)CSc1cc(Cl)ccc1Cl)Nc1ccc(F)c(F)c1F
x	-8.0	CC(C)NC(=S)N/N=C/c1ccc2c(c1)OCCO2
-1.8	x	O=[N+]([O-])c1cccc(C2Oc3ccccc3C3CC(c4ccc(Br)cc4)=NN32)c1 (stereo unspecified)
-0.6	8.0	CCN(CC)C(=O)c1cc2c(=O)n3cccc(C)c3nc2s1
1.0	-1.0	c1ccc(CN=C2CCc3ccccc3N2)cc1
1.4	x	Cc1ccc2nc(-c3cc(NC(=O)c4cccc(OCc5ccccc5)c4)ccc3Cl)oc2c1
0.3	x	O=C(NNC(=O)c1cnn(-c2ccccc2)n1)c1ccc(Cl)c(Cl)c1
9.8	13.0	Cc1cc2c(=O)n(Cc3ccco3)c(SCC(=O)N3CCc4ccccc4C3)nc2s1
3.1	x	CC[C@@H](C(=O)[C@@H](C)[C@@H](O)[C@H](C)[C@@H]1O[C@@H]([C@@H](CC)C(=O)O)CC[C@@H]1C)[C@H]1OC2(C=C[C@@H](O)[C@]3(CC[C@@](C)([C@H]4CC[C@](O)(CC)[C@H](C)O4)O3)O2)[C@H](C)C[C@@H]1C (stereo partly specified)
x	-4.0	CC(c1nnc(SCC(=O)Nc2sccc2C#N)n1-c1ccc(Cl)cc1)N(C)C (stereo unspecified)
-25.0	12.0	Cc1cc(N)n2ncc(-c3ccccc3)c2n1

By substructure: the compounds so far with an aryl thioether with sulfur outside any ring
MgrA-DNA mod	Sa helicase inh	compound
x	3.0	Cc1c(Cl)cccc1NC(=O)CSc1nc(=O)n(CCN2CCOCC2)c2c1CCCC2
x	0.0	c1cnc(Sc2ccc3ccccc3c2)nc1
x	9.0	COc1ccc(-c2nc(SCC(=O)N3CCCc4ccccc43)[nH]c(=O)c2C#N)cc1
0.3	3.0	CC1CCN(C(=O)Cn2cc(SCC(=O)N3CCc4ccccc43)c3ccccc32)CC1
x	-11.0	CC(C)N(C(=O)CSc1nc2ccc(Cl)cc2[nH]1)C(C)C
0.6	5.0	CCC(C)NC(=O)CSc1c2c(nc3ccccc13)CCCC2 (stereo unspecified)
x	2.0	CCN(CC)CCSc1nnnn1-c1ccccc1
x	-5.0	Cc1cc(C)n2nc(SCC(=O)N(C)Cc3ccccc3)nc2n1
-2.0	x	Cc1cc(C)c2c(n1)sc1c(Sc3nccn3C)ncnc12
x	2.0	CCCSc1nc2c(c(=O)n1-c1ccc(F)cc1)SCC2
-0.9	4.0	CSc1nnc(C2CCCN2C(=O)N(c2ccccc2)c2ccccc2)n1C (stereo unspecified)
-0.6	-8.0	O=C(COC(=O)CSc1cc(Cl)ccc1Cl)Nc1ccc(F)c(F)c1F
9.8	13.0	Cc1cc2c(=O)n(Cc3ccco3)c(SCC(=O)N3CCc4ccccc4C3)nc2s1
x	-4.0	CC(c1nnc(SCC(=O)Nc2sccc2C#N)n1-c1ccc(Cl)cc1)N(C)C (stereo unspecified)

Some of the compounds tested; rates above refer to the full screens.
